# SARS PLP yeast = blocks SARS-CoV papain-like protease in a yeast assay | AID 485353 | 330,000 tested, 0.19% active | Potency, µM (top dose mostly 32.9 µM), for inactives: top-dose activity, positive = growth rescue | S. cerevisiae expressing SARS-CoV PLpro, growth rescue; control for the full effect not named in the record; further: 0% is about no effect; nearly all actives have a fitted effect of over 55% in size; growth read by luminescence after 48 h
# LASV entry inh = blocks Lassa virus binding to or entry into cells; Lassa virus pseudotype entry inhibition, cell reporter; control for the full effect not named in the record; Potency, µM (highest dose often 37.9 µM), for inactives: at the highest dose activity change, negative = inhibition, most hits filed as inhibitors; 300,000 tested, 1.2% active; active means well fitted inhibition curve with a large enough effect; inconclusive means small, poorly fitted or top-dose-only effect, or effect the other way; inactive means flat fitted curve, though single readings scatter; tested in HEK293 cells; further: on the % scale 0 is the no-effect control and ±100 the full control effect; nearly all actives have a fitted effect of over 50% in size; luciferase read-out
# Marburg entry inh = Marburg virus entry inhibition; Marburg virus pseudotyped entry inhibition, cell reporter; control for the full effect not named in the record; about a third of the inactives were read at about 46 µM; Potency, µM (top dose mostly 37.8 µM), for the others: at the top dose activity change, negative = inhibition, usual class: inhibitors; 300,000 tested, 1.8% active; active = well fitted inhibition curve with a large enough effect; inconclusive = small, poorly fitted or top-dose-only effect, or effect the other way; inactive = flat fitted curve, though single readings scatter; tested in HEK293 cells; about a fifth of its hits are not listed in these tables; further: on the % scale 0 is the no-effect control and ±100 the full control effect; luciferase read-out
# RE007 growth inh = less growth of the S. pombe RE007 Vpr strain. S. pombe RE007 Vpr strain, BacTiter-Glo ATP luminescence, 24 h; control for the full effect not named in the record. Potency, µM (doses to about 92.2 µM), without a hit: at the top dose activity change, negative = less growth. 360,000 tested, 0.21% active. AID 651644; active = well fitted falling curve with a large enough effect; inconclusive = small, poorly fitted or top-dose-only effect; inactive = no such curve, though single readings can be large or run the other way;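 further: on the % scale 0 is the no-effect control and ±100 the full control effect; nearly all actives have a fitted effect of over 50% in size; the assay follows cell death caused by Vpr and the record does not say whether a fall means rescue or toxicity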
#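 Fission yeast RE007 carrying one integrated HIV-1 vpr copy, seeded at OD 0.01 in PMG+AL medium with 23 nL pinned compound. Grown 24 h at 30 degrees; viability read by BacTiter-Glo luminescence after 5 min.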
# 2A StopGo = FMDV 2A StopGo reporter, luciferase signal | human cells with a luciferase reporter of 2A StopGo recoding; control for the full effect not named in the record | Potency, µM (highest dose often 57.9 µM), without a hit: at the top dose signal change, negative = less light | 410,000 tested, 1.2% active | AID 1159524; active = well fitted falling curve with a large enough effect; inconclusive = small, poorly fitted or top-dose-only effect; inactive = no such curve, though single readings can be large or run the other way; tested in HEK293T cells; further: on the % scale 0 is the no-effect control and ±100 the full control effect; nearly all actives have a fitted effect of over 45% in size; luciferase light after 4 h
# Cruzain Triton = cruzain (T. cruzi) inhibition with detergent | purified cruzain, Z-FR-AMC fluorescence, 0.01% Triton | Potency, µM, inactives show max response, negative = inhibition, most hits filed as inhibitors | AID 1478 | 200,000 tested, 0.43% active | P25779; active means well fitted curve in the direction sought with a large enough effect; inconclusive means small, poorly fitted or top-dose-only effect, or another doubt; inactive means no such curve, though single readings can be large; an effect the other way counts as inactive or inconclusive;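 further: plate controls were neutral wells for no effect and buffer without enzyme for full effect; nearly all actives have a fitted effect of over 40% in size; top concentration of the series not given in the record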
# Target sequence (P25779 123-467 limits assumed): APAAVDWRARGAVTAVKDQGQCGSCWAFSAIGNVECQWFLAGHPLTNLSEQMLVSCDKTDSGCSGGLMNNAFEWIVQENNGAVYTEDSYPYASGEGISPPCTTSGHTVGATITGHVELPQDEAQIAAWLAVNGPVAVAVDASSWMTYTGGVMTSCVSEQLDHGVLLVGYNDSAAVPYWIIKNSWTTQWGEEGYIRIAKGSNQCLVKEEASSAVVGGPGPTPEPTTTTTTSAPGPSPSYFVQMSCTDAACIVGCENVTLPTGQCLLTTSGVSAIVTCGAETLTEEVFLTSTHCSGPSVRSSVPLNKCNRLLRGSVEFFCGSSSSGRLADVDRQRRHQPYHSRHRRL
#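 Enzyme 1.5 nM, Z-FR-AMC 2 uM, NaOAc 100 mM pH 5.5, DTT 5 mM, Triton X-100 0.01%; 15 min RT compound preincubation; kinetic ex360/em450, 60 s delta.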
# NS1 inh = inhibitors of influenza NS1 protein function | S. cerevisiae slowed by influenza A NS1, growth recovery by OD600 | Potency, µM (top dose mostly 46.1 µM), for the others: top-dose activity, positive = more growth | 270,000 tested, 0.4% active | AID 2326; further: actives are rising curves; nearly all actives have a fitted effect of over 50% in size
#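 In this qHTS, NS1 from influenza A is expressed in budding yeast, where it slows growth. Cells are switched from glucose to 2% galactose medium (pH 6.0, -URA), treated with compound, and growth recovery is read at OD600.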
# Cruzain inh noDet = blocks cruzain activity in detergent-free assay. P25779. purified cruzain, Z-FR-AMC fluorescence, no detergent. Potency, µM, inactives show max response, negative = inhibition, most hits filed as inhibitors. 200,000 tested, 2.3% active; active means well fitted curve in the direction sought with a large enough effect; inconclusive means small, poorly fitted or top-dose-only effect, or another doubt; inactive means no such curve, though single readings can be large; an effect the other way counts as inactive or inconclusive;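 further: plate controls were enzyme without inhibitor for no effect and buffer without enzyme for full effect; nearly all actives have a fitted effect of over 40% in size; top concentration of the series not given in the record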
#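 Detergent-free condition (0.00005% Triton X-100) in acetate buffer pH 5.5 with DTT. 1.5 nM enzyme and compound were pre-mixed 15 min, then 2 uM Z-FR-AMC substrate added; reaction progress from fluorescence change between first and third reads (60 s).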
# Active calls of the source: *; u = inconclusive; x = not tested or not shown; & = joins results of further samples; [ ] = another dose, or the depositor's remark. Unless noted, the call rests on the fitted dose curve; in most records, active means well fitted rising curve with a large enough effect; inconclusive means small, poorly fitted or top-dose-only effect; inactive means no such curve, though single readings can be large or run the other way. Potency means the concentration at half of the fitted maximal effect.
Molecule	RE007 growth inh	Cruzain Triton	Cruzain inh noDet	2A StopGo	Marburg entry inh	NS1 inh	SARS PLP yeast	LASV entry inh
CCCCNC(=NCc1cccc(C(F)(F)F)c1)Nc1ccccc1	-13.1%	x	x	-13.8%	u	2.8%	0.7%	u
COc1ccccc1CNc1nc(-c2cc(C)n(C)c2C)cs1	4.6%	x	x	-25.0%	u	x	0.7%	7.8%
CN(C(=O)c1ccccc1C(=O)OCC(=O)c1ccc(Br)cc1)c1ccccc1	6.6%	x	x	u	-24.3%	x	-4.2%	-50.4%
CC(=NCCC1=CCCCC1)c1c(O)n(C)c(=O)n(C)c1=O	-6.2%	-0.3%	5.8%	-16.0%	-15.4%	-14.8%	-13.3%	u
O=C(Cn1c(=O)n(-c2ccccc2)c(=O)c2sc3ccccc3c21)N1CCCC1	x	-2.9%	-10.1%	-11.2%	4.3%[46.1 µM]	x	x	5.1%[46.1 µM]
COc1cc(OC)c(C2C(C(=O)Nc3ccc(C)cc3C)=C(C)Nc3ncnn32)cc1OC (stereo unspecified)	-0.7%	-1.0%	5.7%	2.0%	14.7%&14.7%	-1.2%	-8.5%	3.1%
COc1ccc(-n2c(SCC(=O)NCC3CCCO3)nc3c(c2=O)SCC3)cc1 (stereo unspecified)	0.4%	x	x	-11.5%	2.3%	5.6%	-1.5%	1.7%
CSCC[C@H](NC(=O)Nc1ccccc1C)C(=O)O	5.4%	x	x	2.2%	22.6%[46.1 µM]	0.2%	-0.7%	15.2%
COc1ccc(Cl)cc1NC(=O)Nc1c[nH]c(=O)[nH]c1=O	x	-0.8%	3.6%	-5.6%	x	x	x	-3.5%[46.1 µM]
CCCCCn1nc(C(=O)OCC(=O)c2c(N)n(C)c(=O)n(C)c2=O)c2ccccc2c1=O	-4.2%	x	x	u	u	x	0.6%	-11.1%[46.1 µM]
Cc1ccc(CNC(=O)Cn2c(=O)oc3ccccc32)o1	3.1%	1.1%	6.6%	22.6%	-0.4%	6.4%	-5.7%	0.0%
COCCCNC(=O)Cn1c(=O)n(Cc2ccc(C(=O)NCc3ccc(C)cc3)cc2)c(=O)c2ccccc21	x	-3.6%	u	-13.1%	5.5%[46.1 µM]	x	x	0.7%[46.1 µM]
Brc1cccc(-c2cnn3c(-c4ccccc4)cc(-c4ccccc4)nc23)c1	x	-1.2%	u	3.9%	10.9%[46.1 µM]	x	x	12.0%[46.1 µM]
COc1ccc(/C=C2\CCc3c2nc2ccccc2c3C(=O)O)cc1OC	-15.2%	x	x	-18.7%	x	9.4%	0.1%	x
Cc1cc(C(=O)NNC(=O)CN2C(=O)NC(C)(c3ccccc3)C2=O)c(C)o1 (stereo unspecified)	13.8%	x	x	-15.8%	u	x	x	-0.1%
O=c1[nH]c(NNC(=S)NC2CCCCC2)nc2c1C1(CCCC1)Cc1ccccc1-2	0.2%	x	x	33.0%[activator]	u	u	14.3%	10.4%[46.1 µM]
Cc1ccc(NC(=O)C(OC(=O)c2cnc(C)cn2)c2ccccc2)c([N+](=O)[O-])c1 (stereo unspecified)	3.2%	x	x	13.5%	u	-15.1%	-3.3%	-3.1%
CC(C)c1ccc(C(C)NC(=O)C2CCCC2)cc1 (stereo unspecified)	46.6%	x	x	-26.4%	x	-18.5%	-3.2%	x
COc1ccc(NC(=O)COC(=O)Cc2c[nH]c3ccccc23)cc1Cl	-9.2%	x	x	-8.2%	8.5%[46.1 µM]	x	-1.9%	u
COc1ccc(CNC(=O)CN(C(=O)c2snc(C(N)=O)c2N)c2ccc(F)cc2)cc1	-2.2%	x	x	-2.6%	-25.1%[46.1 µM]	15.0%	-12.1%	x
Cc1ccccc1OCC(=O)Nc1ccccc1N1CCC(C)CC1	-3.6%	x	x	-21.7%	u	x	1.8%	-17.7%[46.1 µM]
CO/N=C/NC(=O)NOCc1ccc(Cl)cc1Cl	-13.1%	0.2%	-11.3%	-12.0%	-0.1%	-5.5%	1.8%	16.4%
CC(=O)Nc1ccc(NC(=O)CSc2nc(C)nc3sc(C)c(C)c23)cc1	27.6%	x	x	-3.7%	8.1%[46.1 µM]	8.8%	2.7%	-11.4%
CCOC(=O)c1c(NC(=O)CSc2nc3ccccc3c(=O)n2-c2ccc(F)cc2)sc(C(C)=O)c1C	12.6%	-4.9%	7.94µM*	0.0%	-7.9%	14.7%	u	0.7%
Cc1ccc(NC(=O)NNC(=O)c2ccccc2)cc1	8.1%	x	x	44.6%[activator]	x	1.9%	-0.2%	x
Cc1ccc(N2CCN(S(=O)(=O)N3CCCCCC3)CC2)cc1Cl	-12.7%	-2.0%	-11.3%	4.3%	-17.1%	5.3%	0.1%	4.3%
CC(=O)c1ccccc1OC(=O)CCN1C(=O)c2ccccc2C1=O	-0.1%	x	x	-5.0%	4.3%[46.1 µM]	x	-2.6%	18.8%[46.1 µM]
CCn1c(=O)n(CC(=O)NCc2ccco2)c(=O)c2ccccc21	-2.0%	-0.1%	0.3%	-19.9%	u	-1.9%	u	7.3%
Cn1nc(-c2ccc3c(c2)OCCO3)c2ccccc2c1=O	4.0%	x	x	u	u	x	-5.2%	-14.3%[46.1 µM]
CC(=O)c1ccc(N2CCN(c3ncnc4c3c(-c3ccccc3)cn4-c3ccc(C)c(Cl)c3)CC2)cc1	x	-1.4%	4.1%	-7.6%	x	x	x	18.3%[46.1 µM]
O=C(c1ccc(F)cc1)N1CCN(C(=O)c2cccnc2)CC1	16.3%	4.0%	-0.3%	8.1%	17.3%	10.2%	4.4%	-1.6%
Cc1cc(=O)[nH]c2nnc(-c3ccc(Br)cc3)n12	-3.2%	x	x	-12.5%	x	4.7%	0.0%	x
O=C(O)CC/C(=N/NC(=O)c1ccc(-c2ccccc2)cc1)c1ccccc1	-21.4%	x	x	9.8%	u	22.6%	u	-15.2%
CC(Oc1ccc(Cl)cc1Cl)C(=O)NCc1ccncc1 (stereo unspecified)	11.4%	-4.7%	-1.8%	-16.1%	-0.9%	2.3%	3.5%	1.4%
C(#Cc1ccccc1)CN1CCCCC1	4.2%	x	x	5.9%	12.1%[46.1 µM]	1.3%	1.3%	-5.1%
COc1cc(S(=O)(=O)N2CCN(C)CC2)c(OC)cc1Cl	-8.3%	3.5%	-13.2%	10.6%	-19.7%	1.1%	16.9%	8.7%
COc1ccc(N2CC(NC(=O)c3ccc(S(=O)(=O)N4CCCCC4)cc3)CC2=O)cc1 (stereo unspecified)	x	-1.1%	7.6%	-17.7%	x	x	x	16.3%[46.1 µM]
Cc1ccnc(NS(=O)(=O)c2cnc(Cl)c(Br)c2)c1	4.3%	-2.9%	-0.6%	75.3%[activator]	12.3%	-1.8%	6.7%	4.1%
Cc1cccc(NC(=O)Cn2c(=O)n3nc(CCn4nc(C)cc4C)nc3c3ccccc32)c1	-12.4%	-2.9%	u	1.5%	3.0%	u	10.9%	6.8%
CCN(C(=O)C1CCC(CNS(=O)(=O)c2cccc3nsnc23)CC1)c1cccc(C)c1 (stereo unspecified)	x	-3.3%	14.8%	u	u	x	x	u

# Entries of single compounds, quoted from the list.
# Results for O=C(O)CC/C(=N/NC(=O)c1ccc(-c2ccccc2)cc1)c1ccccc1 = RE007 growth inh = -21.4%; Cruzain Triton = x; Cruzain inh noDet = x; 2A StopGo = 9.8%; Marburg entry inh = u; NS1 inh = 22.6%; SARS PLP yeast = u; LASV entry inh = -15.2%
# Results for CC(=O)Nc1ccc(NC(=O)CSc2nc(C)nc3sc(C)c(C)c23)cc1 = RE007 growth inh = 27.6%; Cruzain Triton = x; Cruzain inh noDet = x; 2A StopGo = -3.7%; Marburg entry inh = 8.1%[46.1 µM]; NS1 inh = 8.8%; SARS PLP yeast = 2.7%; LASV entry inh = -11.4%

# Following part.
Molecule	RE007 growth inh	Cruzain Triton	Cruzain inh noDet	2A StopGo	Marburg entry inh	NS1 inh	SARS PLP yeast	LASV entry inh
Cn1ncc([N+](=O)[O-])c1C(=O)Nc1cccc2ccccc12	7.6%	x	x	13.3%	u	5.1%	-0.9%	9.0%[46.1 µM]
CCN(CC)CCN(Cc1cc2ccc(C)cc2[nH]c1=O)C(=O)NC1CCCCC1	-5.9%	x	x	-10.7%	u	-3.4%	0.2%	0.7%
CC(C)c1csc(CN2CCN(CCc3ccccc3)C(CCO)C2)n1 (stereo unspecified)	-8.4%	x	x	-11.0%	x	-0.3%	-0.6%	x
CCc1ccc(OCC(=O)O/N=C(\N)c2ccccn2)cc1	-5.0%	x	x	74.7%[activator]	2.1%	-47.9%	-4.3%	x
CC(=O)c1cccc(NC(=O)NCc2ccc3c(c2)OCO3)c1	-14.9%	x	x	7.8%	x	-9.8%	u	x
CCOC(=O)c1cc(-c2ccccc2)sc1NC(=O)CCN1C(=O)c2ccccc2C1=O	-16.0%	-15.7%	u	u	16.6%	-1.0%	6.8%	10.7%
Cc1ccnc(NC(=O)c2cccc(S(=O)(=O)Nc3ccc(C)cc3C)c2)c1	0.3%	x	x	8.4%	u	x	-12.1%	-20.3%[46.1 µM]
CC(NCC(O)COc1ccc(S(=O)(=O)N2CCOCC2)cc1)c1ccccc1 (stereo unspecified)	5.1%	x	x	9.4%	-26.4%[46.1 µM]	-1.4%	-0.9%	x
O=S(=O)(NCc1ccco1)c1ccc2c(c1)Cc1ccccc1-2	1.4%	-13.1%	-3.2%	125.1%[activator]	2.9%	-4.6%	-0.9%	-7.1%
Cc1[nH]nc2c1C(c1ccccc1)C1=C(CC(C)(C)CC1=O)N2 (stereo unspecified)	-18.6%	-1.8%	-8.7%	-24.1%	-24.8%	1.4%	-7.6%	-7.9%
O=C(Cn1c(=O)n(-c2ccc(Cl)cc2)c(=O)c2c3c(sc21)CCC3)c1ccc(F)cc1	x	-1.5%	4.8%	-15.9%	u	x	x	-1.6%[46.1 µM]
